CtBP-E1A blk = inhibitors of CtBP/E1A interaction; AlphaScreen GST-E1A/His-CtBP binding, 1536-well; hits give low values; control for the full effect not named in the record; activity change, % (test concentration not listed); 0.49% of 340,000 active; AID 651724; in the data active means activity change below about -65%; inconclusive means about -30% to -65%; inactive means above about -30%; further: on the % scale 0 is the no-effect control and ±100 the full control effect; compound concentration not given in the record
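In 5 uL wells, 23 nL compound meets equimolar GST-E1A and His-CtBP (5X stock 125 nM each) for 2 h, 37 °C. Beads (5X, 50 ug/mL) then 1 h, 37 °C, dark.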
Six1-Eya2 blk = inhibitors of human Six1/Eya2 interaction | 0.56% of 360,000 active | activity change, % (no concentration beside the values) | Q15475+O00167 | AlphaScreen GST-Six1/His-Eya2 binding, biochemical; hits give low values; control for the full effect not named in the record; in the data active = activity change below about -65%; inconclusive = about -30% to -65%; inactive = above about -30%; further: on the % scale 0 is the no-effect control and ±100 the full control effect; compound concentration not given in the record
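Homogeneous AlphaScreen proximity assay pairing GST-Six1 with His-tagged Eya2 (added as 5X mix: 250 nM and 500 nM) in 50 mM Tris pH 8.0, 300 mM NaCl, 1 mM TCEP. Glutathione donor and nickel acceptor beads; 1 h, 37 °C, dark.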
D2 potentiator = positive allosteric modulators of human D2 dopamine receptor; P14416; 0.23% of 360,000 active; potentiation, % (no concentration beside the values); DiscoveRx D2 beta-arrestin cells, luminescence, 90 min; 100% = 57 uM dopamine signal; active = potentiation of 50% or more; inconclusive = 30% to 50%; inactive = 30% or less;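 further: compound concentration not given in the record; tested on top of an EC20 dose of dopamine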
Target sequence (P14416 whole entry, looked up): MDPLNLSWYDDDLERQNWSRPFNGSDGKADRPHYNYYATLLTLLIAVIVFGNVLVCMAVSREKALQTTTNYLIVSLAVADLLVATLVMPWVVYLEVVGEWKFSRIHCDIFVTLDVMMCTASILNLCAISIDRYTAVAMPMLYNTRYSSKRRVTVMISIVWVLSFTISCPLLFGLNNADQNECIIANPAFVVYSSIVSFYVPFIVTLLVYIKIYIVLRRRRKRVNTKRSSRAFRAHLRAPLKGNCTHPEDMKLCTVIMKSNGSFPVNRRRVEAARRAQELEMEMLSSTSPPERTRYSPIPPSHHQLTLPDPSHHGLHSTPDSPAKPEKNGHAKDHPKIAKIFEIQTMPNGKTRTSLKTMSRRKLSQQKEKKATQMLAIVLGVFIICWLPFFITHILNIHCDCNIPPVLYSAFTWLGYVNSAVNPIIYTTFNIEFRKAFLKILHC
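PathHunter D2 cells, attached overnight at 37 deg C, received compound in DMSO plus dopamine at EC20 (50 nM final) for 90 min at 37 deg C. Beta-arrestin recruitment was read as luminescence after 1 h with detection reagent at ambient temperature.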
TRPML1 ag = human mucolipin-1 channel agonism; TRPML1-expressing cells, Ca2+ dye fluorescence, FDSS; host cell line not named in the record; reference of the full effect not given here; activation, % (no concentration beside the values); 0.12% of 410,000 active; AID 624414; in the data active = activation above about 50%; inconclusive = about 30% to 50%; inactive = below about 30%; further: 0% is about no effect; the text of the record puts the active cut at 80%
Target sequence (Q9GZU1 whole entry, looked up): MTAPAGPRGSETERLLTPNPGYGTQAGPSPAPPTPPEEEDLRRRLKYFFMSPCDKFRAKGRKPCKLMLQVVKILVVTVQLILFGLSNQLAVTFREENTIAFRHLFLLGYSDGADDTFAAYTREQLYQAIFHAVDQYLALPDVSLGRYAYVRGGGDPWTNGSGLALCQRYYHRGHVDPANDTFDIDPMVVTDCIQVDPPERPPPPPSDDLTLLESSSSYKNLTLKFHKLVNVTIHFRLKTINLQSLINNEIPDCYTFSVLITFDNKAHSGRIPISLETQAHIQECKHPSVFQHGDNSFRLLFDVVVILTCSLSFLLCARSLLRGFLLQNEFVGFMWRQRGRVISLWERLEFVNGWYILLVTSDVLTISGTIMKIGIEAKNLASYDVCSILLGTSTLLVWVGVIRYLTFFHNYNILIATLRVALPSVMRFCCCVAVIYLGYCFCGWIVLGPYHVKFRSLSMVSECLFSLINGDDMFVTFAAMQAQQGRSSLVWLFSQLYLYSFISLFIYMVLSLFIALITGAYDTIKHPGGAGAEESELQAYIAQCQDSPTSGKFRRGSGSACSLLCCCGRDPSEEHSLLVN
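Kinetic FDSS Ca2+ read in Tet-induced TRPML1-DL cells (ABD Ca8 dye plus quencher, 45-90 min RT loading): baseline, then compound, then 110 s agonist window; EC80 agonist 54-4 at 4uM final added afterwards for a 110 s antagonist window.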
D2 ag = human D2 receptor agonism in beta-arrestin assay; DiscoveRx PathHunter D2 beta-arrestin, luminescence, 90 min; 100% = 57 uM dopamine signal; activation, % (no concentration beside the values); 0.084% of 360,000 active; in the data active = activation above about 40%; inconclusive = about 15% to 40%; inactive = below about 15%; further: compound concentration not given in the record; the text of the record calls up to 30% inactive
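Agonist mode: compounds alone added to overnight-plated D2 PathHunter cells for 90 min at 37 C, with 57 uM final dopamine (EC100) defining full response. Beta-arrestin recruitment detected by chemiluminescent reagent, read after 1 h at ambient temperature.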
PINK1 modulator = changes PINK1 expression | Potency, µM (top dose mostly 76.6 µM), for the others: at the highest dose activation (PINK1 increase), hits mostly activators | 0.2% of 410,000 active | PINK1 immunofluorescence, high-content cytometry, 24 h; active = well fitted activation curve with a large enough effect; inconclusive = small, poorly fitted or top-dose-only effect; inactive = flat fitted curve, though single readings scatter; cell line not stated here;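 further: potency means the concentration at half of the fitted maximal effect; % of control where 0% means no effect; nearly all actives have a fitted effect of over 65% in size; a mitochondrial uncoupler was the plate control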
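Stable cell line, 250 cells/well, 12 h attachment; compounds pinned at 5 concentrations, 24 h; CCCP control. Fixed with nuclear dye, primary antibodies 12 h at 10 degrees C, secondary plus cell stain; laser-scanning cytometer read.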
Numbers without * were called inactive; u = inconclusive; x = no result given; [ ] = dose if it differs, or a comment. The order is random; overall some 1.3% were active at least once.

SMILES | CtBP-E1A blk | Six1-Eya2 blk | D2 potentiator | TRPML1 ag | D2 ag | PINK1 modulator
CCOC(=O)C1=C(C)NC(=O)NC1C (stereo not given) | 2 | 0 | -14 | 0.2 | 0.1 | -2.5%[38.3 µM]
COc1cc(/C=N/NC(=O)CC2(C)OCCCO2)ccc1OCc1ccc(Cl)cc1Cl | -2 | -2 | -3 | 2.1 | -0.8 | 0.4%
O=c1[nH]cc(NCc2ccccc2)c(=O)[nH]1 | -3 | 11 | -10 | 0.5 | -0.3 | 0.2%
Cc1ccccc1OCC(=O)N1CCC2(CC1)CC(=O)c1ccccc1O2 | 2 | 5 | -25 | -0.3 | 0.3 | 2.1%
COc1ccccc1-c1nn2c(=O)cc(C)nc2s1 | -1 | -4 | -1 | -0.3 | -2.7 | -0.4%
CC(C)c1ccc(/C=N/Nc2cc(N3CCOCC3)nc(N3CCOCC3)n2)cc1 | -15 | -9 | -7 | -0.4 | -5.8 | 4.6%
Oc1ccc(Cl)cc1CNCc1ccc(F)cc1 | 14 | 9 | -24 | 3.6 | -5.7 | 5.6%
CCOC(=O)c1ccc(NC(=S)NC2CCCC2)cc1 | 0 | 11 | -12 | -0.1 | -1.6 | 2.1%
O=C(C1CCN(C2CCN(Cc3ccsc3)CC2)CC1)N1CCOCC1 | 0 | 2 | 0 | 1.4 | -6.5 | 2.4%
COc1ccc(C2c3ccc4ccccc4c3Oc3ncn(CCO)c(=N)c32)cc1 (stereo not given) | 2 | -5 | -9 | 0.3 | 7.6 | -1.6%
C=CCn1c(CSCc2ccccc2)nnc1SCC(=O)N1CCN(c2ccccc2)CC1 | 4 | -9 | -21 | 0.5 | -2.2 | 2.6%
O=C(Nc1ccccc1Br)C1CC(=O)N(c2ccc3c(c2)OCCO3)C1 (stereo not given) | -5 | 7 | 1 | -0.1 | 0.4 | 0.6%
O=C(NC(=S)Nc1cccc2ncccc12)c1ccco1 | 6 | -4 | -3 | -0.4 | -10 | 1.3%
CCSc1nnc(CNc2ccc(F)cc2)n1CC1CCCO1 (stereo not given) | 4 | 1 | -11 | 0.9 | -0.9 | 1.3%
COc1ccc(OC)c(N(CC(=O)NCCSC2CCCCC2)S(=O)(=O)c2ccccc2)c1 | -4 | -1 | 0 | 1.4 | -1.1 | 11%
CCCC(=O)Nc1sc(C)c(C)c1C#N | 0 | 0 | -17 | -0.3 | -3.0 | -0.7%
Cn1c(=O)c2c(nc(Sc3nc4ccccc4n3CC(=O)N3CCCCC3)n2C)n(C)c1=O | -14 | -1 | -6 | -0.6 | 1.1 | 0.9%
COC(=O)C1CCN(C(=O)COC(=O)C2CCN(S(=O)(=O)c3c(Cl)cccc3Cl)CC2)CC1 | -3 | 3 | 6 | 0.3 | -0.2 | -1.1%
COc1ccc(Oc2nc(-c3ccncc3)nc3ccccc23)cc1 | 2 | 1 | -4 | 1.3 | 2.5 | 3.8%
CC1CN(c2nnnn2-c2ccccc2)CC(C)O1 (stereo not given) | 4 | 7 | -2 | 0.0 | -14 | -0.4%
C=CCOc1ccc(/C=C/C(=O)OCC(=O)NCc2cccc(OC)c2)cc1 | -9 | 10 | -1 | -0.2 | 5.1 | 8.4%
COc1ccc(N2CCN(C(=O)c3ccccc3N(C)S(=O)(=O)c3ccccc3)CC2)cc1 | -7 | -15 | -19 | 0.5 | -4.9 | 3.7%
N#Cc1ccc(OCCN2CCc3ccccc3C2)cc1 | x | -3 | -26 | -0.6 | -3.0 | -0.6%
CCCCCCc1ccc(N2C[C@H](C)[C@@H](CC(=O)NCc3ccccc3)C2=O)cc1 | 4 | 1 | -6 | 0.4 | 0.9 | 0.5%
CN(Cc1ccc(F)cc1)S(=O)(=O)c1ccc2[nH]c(=O)[nH]c2c1 | 0 | 12 | -7 | -0.3 | 0.6 | 1.0%
O=CNc1cc(-c2ccc(C(=O)NC3CC3)cc2)cn2c(-c3ccccc3)cnc12 | -21 | u | 4 | -0.5 | 11 | 1.3%
CCN(CC)S(=O)(=O)c1ccc(-c2nnc(SCc3nnc(-c4ccc(C)cc4)o3)n2CC)cc1 | 0 | 0 | -10 | -0.2 | -1.2 | x
COc1ccc(S(=O)(=O)N2CCC(C(=O)NCc3ccncc3)CC2)cc1 | 4 | 0 | -7 | -0.1 | 7.3 | -1.1%
Cc1sc2nc(SCC(=O)Nc3ccccc3F)[nH]c(=O)c2c1C | -23 | -7 | -6 | 0.5 | 0.6 | 24%
O=C(NC1CCCC1)C(c1ccc(O)cc1)N(CC1CCCO1)C(=O)C1COc2ccccc2O1 (stereo not given) | 3 | 0 | -1 | 0.9 | -0.6 | -0.6%[38.3 µM]
Cc1ccc(Nc2nc(C)cc(C)c2C(N)=O)cc1 | 0 | 0 | -13 | 1.1 | -8.5 | 1.0%
OC1(c2cccnc2)CCN(Cc2nnnn2C2CCCCC2)CC1 | 8 | 15 | -7 | -0.7 | 1.2 | 0.0%
CN(C)c1nc(OCCNC(=O)Nc2ccccc2)nc(N2CCCCC2)n1 | -2 | 1 | -17 | 0.3 | 1.6 | -0.5%
COc1ccc2cc(-c3cc(C(=O)OCC(=O)NC4CCS(=O)(=O)C4)c4ccccc4n3)ccc2c1 (stereo not given) | -16 | 4 | 1 | 0.6 | 1.0 | 4.0%
COc1ccc2[nH]cc(C(=O)CN3CCN(C4CCCCC4)CC3)c2c1 | -4 | 4 | -18 | -0.2 | 0.0 | 1.7%
CC1CN(C(=O)/C=C/c2ccc3c(c2)OCO3)CC(C)O1 (stereo not given) | -2 | -1 | 12 | -0.2 | -0.4 | -0.1%[38.3 µM]
C=C(C)Cn1c(C2CC(=O)N(Cc3ccccc3)C2)nc2ccccc21 (stereo not given) | 7 | 0 | -6 | -0.5 | -2.6 | -1.0%
Nc1c(-c2ccccc2)c(CN2CCOCC2)nn1-c1ccc(C(=O)O)cc1 | 13 | 3 | -17 | -0.6 | -3.9 | 4.5%
CC(C)NC(=O)NC(=O)CSc1nnc(-c2ccccc2F)n1N | 12 | 3 | -6 | -0.4 | -8.0 | 4.1%
Cc1cccc(NC(=O)CN(CC2CCCO2)C(=O)c2oc3ccc(F)cc3c2C)c1C (stereo not given) | -1 | -4 | 3 | -0.4 | -3.3 | 0.6%
Cc1ccc(Oc2nnc(-c3cccs3)c3ccccc23)cc1C | 0 | -4 | 10 | 0.0 | -1.0 | u
Cc1ccc(OCc2ccc(-c3ccccc3)cc2)c([N+](=O)[O-])n1 | -1 | -2 | 0 | 1.0 | -2.5 | -0.1%
C(#Cc1ccccc1)C[N+]1(CC#Cc2cccc3ccccc23)CCOCC1 | -23 | -3 | -32 | 0.0 | -6.4 | 0.9%
CCc1nnc(NC(=O)C(CC)c2ccccc2)s1 (stereo not given) | 18 | 8 | -6 | 1.4 | -3.5 | 9.3%
Cc1ccc(NC(=S)N2CCC(NC(=O)c3ccco3)CC2)cc1C | 1 | 1 | -9 | 0.2 | -0.1 | 0.6%
CC1C(=O)N2CCCc3cc(NC(=O)C(=O)NCc4ccc5c(c4)OCO5)cc1c32 (stereo not given) | 3 | -23 | -2 | -0.6 | -1.8 | 0.8%
Cc1ccc(CNC(=O)CCCC(=O)O)cc1 | 8 | 1 | -2 | 0.3 | 0.8 | 9.5%[38.3 µM]
COC(C[C@H]1O[C@H]1[C@H](O)[C@H](C)OCc1ccccc1)OC | 9 | 3 | -2 | -0.2 | -1.0 | -0.1%
CCc1cccc(CC)c1NC(=O)CN1CCN(S(=O)(=O)c2ccccc2)CC1 | -3 | 0 | -2 | 0.5 | -3.2 | 3.3%
CC(=O)NCCCc1nc2ccccc2n1Cc1ccccc1F | -11 | 3 | 1 | -0.6 | -4.5 | 2.0%
N/C(COc1ccc(C(=O)O)cc1)=N\O | 1 | 2 | -5 | -0.6 | -1.8 | 0.5%
CN(C(=O)COC(=O)c1ccc(C(C)(C)C)cc1)C1CCS(=O)(=O)C1 (stereo not given) | 13 | 11 | -1 | -0.2 | -0.8 | 2.7%
Cc1c(O)cc2c(c1O)C(=O)CC(c1ccccc1)O2 (stereo not given) | 26 | -3 | -42 | x | 4.5 | 0.2%
Cn1c(Cn2c(=O)sc3ccccc32)nnc1SCC(=O)NC1CCCCC1 | -11 | 12 | 1 | 0.6 | -3.6 | -0.2%
COc1ccc(CN2C[C@@H](CO)O[C@@H](n3cnc4c(N(C)C)ncnc43)C2)cc1 | 0 | -5 | -4 | -1.1 | -5.9 | 2.2%
Cc1ccc(NC(=O)CN2CCc3ccccc3C2)cc1F | 8 | 12 | -3 | 1.0 | 0.8 | -0.9%
CCOC(=O)N1CCC(NC(=O)C2=CCN(S(=O)(=O)c3ccc(F)cc3)CC2)CC1 | 4 | 9 | -7 | -0.2 | -1.9 | 2.5%
COc1ccc(NC(=O)C2OC3OC(C)(C)OC3C3OC(C)(C)OC23)cc1 (stereo not given) | 2 | 4 | 11 | -0.4 | -0.6 | 21%[38.3 µM]
COCCCn1c(=S)[nH]c2sc3c(c2c1=O)CCCC3 | -10 | -9 | -11 | 1.9 | 1.2 | -1.5%
O=C(Cn1cnc2ccccc2c1=O)NCCC(=O)Nc1ccccc1C(F)(F)F | -15 | 6 | -10 | -0.2 | -3.8 | 1.7%

Structural class, the entries above containing an aryl thioether with sulfur outside any ring.
SMILES | CtBP-E1A blk | Six1-Eya2 blk | D2 potentiator | TRPML1 ag | D2 ag | PINK1 modulator
C=CCn1c(CSCc2ccccc2)nnc1SCC(=O)N1CCN(c2ccccc2)CC1 | 4 | -9 | -21 | 0.5 | -2.2 | 2.6%
CCSc1nnc(CNc2ccc(F)cc2)n1CC1CCCO1 (stereo not given) | 4 | 1 | -11 | 0.9 | -0.9 | 1.3%
Cn1c(=O)c2c(nc(Sc3nc4ccccc4n3CC(=O)N3CCCCC3)n2C)n(C)c1=O | -14 | -1 | -6 | -0.6 | 1.1 | 0.9%
CCN(CC)S(=O)(=O)c1ccc(-c2nnc(SCc3nnc(-c4ccc(C)cc4)o3)n2CC)cc1 | 0 | 0 | -10 | -0.2 | -1.2 | x
Cc1sc2nc(SCC(=O)Nc3ccccc3F)[nH]c(=O)c2c1C | -23 | -7 | -6 | 0.5 | 0.6 | 24%
CC(C)NC(=O)NC(=O)CSc1nnc(-c2ccccc2F)n1N | 12 | 3 | -6 | -0.4 | -8.0 | 4.1%
Cn1c(Cn2c(=O)sc3ccccc32)nnc1SCC(=O)NC1CCCCC1 | -11 | 12 | 1 | 0.6 | -3.6 | -0.2%

Screening results: PubChem, National Center for Advancing Translational Sciences (NCATS)
